Source: PubChem
ClpP mod = qHTS Assay for Activators of ClpP. actives 1.9% (n = 340,000). ATP-dependent Clp protease proteolytic subunit (Bacillus subtilis (strain 168)), P80244. AID 651965, 2013. purified B. subtilis ClpP, FRET peptide cleavage, 20 min. Potency, µM (titrated, usually from 57.5 µM), for inactives: at the top dose activity change, negative = active; active = well fitted falling curve with a large enough effect; inconclusive = small, poorly fitted or top-dose-only effect; inactive = no such curve, though single readings can be large or run the other way; note: potency is the fitted concentration of half-maximal effect; the source files actives as falling curves though it sought activators and does not explain the sign; nearly all actives have a fitted effect of over 65% in size; many hits overshoot -100%
Target sequence (P80244 whole entry, looked up): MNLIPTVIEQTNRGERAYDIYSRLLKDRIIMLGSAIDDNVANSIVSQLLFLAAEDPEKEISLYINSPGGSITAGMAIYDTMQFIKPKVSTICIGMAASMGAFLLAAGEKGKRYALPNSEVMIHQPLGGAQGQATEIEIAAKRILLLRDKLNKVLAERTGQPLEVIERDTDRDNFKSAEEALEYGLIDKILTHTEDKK
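Purified B. subtilis ClpP, 10 microg/mL final in Tris/HCl pH8 with KCl, BSA, glycerol and Tween-20, cleaved an Abz/nitrotyrosine-quenched decapeptide. Fluorescence (ex 320, em 430) was read at 0 and 20 min at room temperature. Delta was normalized to 5.8 microM ADEP and DMSO/no-enzyme controls.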
Sfp inh = Sfp phosphopantetheinyl transferase inhibition; Q9F4F7; Biochemical Sfp PPTase activity, qHTS; Potency, µM, for inactives: max response, negative = inhibition, hits mostly inhibitors; actives 3.5% (n = 310,000); AID 1490; active = well fitted inhibition curve with a large enough effect; inconclusive = small, poorly fitted or top-dose-only effect, or another doubt; inactive = no such curve, though single readings can be large or run the other way;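 note: the enzyme is Sfp with the accession as filed and its product quenches rhodamine fluorescence; potency is the fitted concentration of half-maximal effect; 0% = enzyme reaction without inhibitor and -100% = no enzyme wells; top concentration of the series not given in the record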
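With Hepes-Na pH 7.6 buffer containing 10 mM MgCl2, Sfp (15 nM) modified BHQ-2-YbbR (12.5 uM) using rhodamine-CoA (5 uM). Two reads 30 minutes apart at 525/598 nm yielded each well's rate.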
gsp agonist = activates gsp, the McCune-Albright syndrome mutation | gsp mutant cells, cAMP HTRF, 30 min; control for the full effect not named in the record | Potency, µM (series often up to 76.9 µM), inactives show top-dose activation (cAMP increase), usual class: activators | actives 0.13% (n = 340,000) | AID 624287; active = well fitted activation curve with a large enough effect; inconclusive = small, poorly fitted or top-dose-only effect, or another doubt; inactive = no such curve, though single readings can be large or run the other way; cell line not stated here;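 note: phosphodiesterase inhibitor Ro 20-1724 added with compounds to block cAMP breakdown; potency is the fitted concentration of half-maximal effect; nearly all actives have a fitted effect of over 60% in size; about a fifth of the inactives were tested at one dose only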
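Cells stably selected in G418 were plated at 2000/well, grown 16-24 hr, then given compounds in DMSO with the PDE inhibitor […] (300 uM solution added) for 30 min at 37C; cAMP was read by HTRF.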
TRPML1 blocker = human mucolipin-1 channel inhibition; activity change, negative = inhibition, % (concentration not given with the values); actives 0.02% (n = 390,000); TRPML1-inducible cells, Ca2+ dye fluorescence, FDSS; stronger effect = lower value; inhibition of EC80 agonist-evoked calcium signal; Q9GZU1; in the data active means activity change below about -50%; inconclusive means about -30% to -50%; inactive means above about -30%;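 note: stimulus is agonist 54-4 at its EC80 concentration; % is set by controls: 0 for no effect and ±100 for the full control effect; compound concentration not given in the record; the text of the record puts the active cut at -80%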
Target sequence (Q9GZU1 whole entry, looked up): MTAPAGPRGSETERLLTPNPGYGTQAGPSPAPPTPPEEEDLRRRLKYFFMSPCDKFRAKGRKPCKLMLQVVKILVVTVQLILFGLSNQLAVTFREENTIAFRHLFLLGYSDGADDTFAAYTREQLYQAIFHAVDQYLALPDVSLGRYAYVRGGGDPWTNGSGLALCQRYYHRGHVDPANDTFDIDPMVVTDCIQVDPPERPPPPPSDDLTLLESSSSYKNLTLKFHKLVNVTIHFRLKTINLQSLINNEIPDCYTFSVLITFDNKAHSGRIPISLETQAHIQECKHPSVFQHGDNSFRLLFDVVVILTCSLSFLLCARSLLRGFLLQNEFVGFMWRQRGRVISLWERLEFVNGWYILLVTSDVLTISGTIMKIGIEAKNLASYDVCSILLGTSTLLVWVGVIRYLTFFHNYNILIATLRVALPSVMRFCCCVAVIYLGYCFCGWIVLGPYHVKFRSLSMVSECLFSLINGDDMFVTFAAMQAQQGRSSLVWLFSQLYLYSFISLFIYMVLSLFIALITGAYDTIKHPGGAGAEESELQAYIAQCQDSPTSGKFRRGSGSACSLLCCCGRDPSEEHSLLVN
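TRPML1-DL cells, Tet-induced overnight (~16 h, 37 °C) at 1,500 cells/well, were loaded with Ca8 no-wash dye plus quencher for 45-90 min at room temperature. Compounds were pinned during FDSS kinetic reading; agonist 54-4 at EC80 (4 uM final) then added.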
Menin-MLL FL inh = displaces fluorescein MLL peptide from human menin; Fluorescence polarization, fluorescein-MLL peptide displacement from menin; FP activity change, % at 61.4 µM; 290,000 tested, under 10 active; inconclusive = falling polarisation curve, or a change in total fluorescence; inactive = total fluorescence flat and polarisation flat or rising; no compound was filed as active; the % refers to the polarisation; negative = inhibition;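 note: % of control where 0% means no effect; inhibitors lower the polarisation; unlabelled MLL peptide was the positive control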
TRPV1 PAM = enhances activation of the human vanilloid receptor TRPV1. AID 540277. actives 0.02% (n = 320,000). TRPV1-expressing cells, Fluo-8 calcium influx, capsaicin EC20 potentiation; host cell line not named in the record; control for the full effect not named in the record. Q8NER1. potentiation, % at 8.33 µM; active means potentiation above 80%; inconclusive means 30% to 80%; inactive means below 30%; note: 0% is about no effect
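TRPV1-expressing cells were cultured overnight at 35.5C and loaded with Fluo-8 calcium dye for 40 to 90 min at room temperature. After a 10 s baseline, compound was added and calcium influx was read kinetically for 3 min (ex 480/em 520 nm).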
gsp antagonist = antagonists of gsp mutant (McCune-Albright syndrome) | gsp-mutant cells, cAMP HTRF, 30 min; control for the full effect not named in the record | Potency, µM (top dose mostly 76.9 µM), without a hit: at the highest dose activity change, negative = inhibition, usual class: inhibitors | actives 0.4% (n = 340,000) | AID 624288; active = falling curve of any shape with a large fitted effect; inconclusive = falling curve, mostly with a smaller effect; inactive = flat or rising curve; cell line not stated here;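 note: intracellular cAMP measured with PDE inhibitor Ro 20-1724 present during compound exposure; potency is the fitted concentration of half-maximal effect; % is set by controls: 0 for no effect and ±100 for the full control effect; nearly all actives have a fitted effect of over 65% in size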
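HTRF cAMP measurement after 30 min RT detection following 30 min, 37C compound treatment alongside […] (added as 300 uM solution) in G418-selected cells seeded at 2000/well and grown 16–24 h.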
The depositor's hits bear a star; u = inconclusive; x = not tested or not shown; [ ] = remark or other dose.

SMILES	ClpP mod	Sfp inh	gsp agonist	TRPML1 blocker	Menin-MLL FL inh	TRPV1 PAM	gsp antagonist
CCOC(=O)C1=C(C)N(C)C(=O)NC1c1cc2c(cc1Br)OCO2 (stereo not drawn)	1.0%	1%	u	-11	5.0	-3	7%
COc1ccc([N+](=O)[O-])cc1NCc1cccnc1	x	u	9%[15.4 µM]	-13	0.5	22	0%
COc1ccccc1/C=C/C(=O)NC(=S)NC(C)C	-8.6%	u	u	39	-4.2	-1	5%
CC(C)[C@H](NS(=O)(=O)c1ccc(Cl)cc1)C(=O)OCC(=O)NCCN1C(=O)CSC1=O	-0.8%	1%	-60%[inhibitor]	-1	2.1	8	8%
CC(=O)N1CCN(c2ccc(NC(=O)c3ccc4c(c3)OCO4)cc2)CC1	-0.8%	11%	8%	-8	0.8	10	-1%
O=c1[nH]c(SCc2c(Cl)cccc2Cl)nc2ccccc12	2.2%	12%	-3%[15.4 µM]	10	-2.9	12	-3%
S=C(Nc1ccc(Cl)c(Cl)c1)N1CCN(c2ccccn2)CC1	-6.4%	0%	14%[15.4 µM]	21	-2.0	1	4%
Fc1ccc(CSc2nnc(-c3ccccn3)o2)cc1	-2.5%	11%	-6%	x	0.8	-11	13%
Cc1cc(C)n2c(SCC(=O)Nc3ccc(F)cc3F)nnc2n1	-0.1%	1%	-1%[15.4 µM]	3	4.3	-1	8%
CCOc1ccc(/C=N/NC(=O)C(O)c2ccccc2)c(O)c1 (stereo not drawn)	x	5%	-70%[inhibitor]	-3	0.2	1	-5%
O=c1oc2ccccc2c(Nc2ccc3ccccc3c2)c1[N+](=O)[O-]	0.5%	-8%	u	10	-3.2	-22	u
Cc1ccc(-n2ncc3c2CCCC3NC(=O)CCC2=NNC(=O)CC2)cc1C (stereo not drawn)	-1.5%	12%	-74%[inhibitor]	2	x	0	10%
O=C(Cn1ncc2ccccc21)N1CCc2ccccc21	-2.3%	23%	-73%[inhibitor]	48	2.5	25	4%
COc1cc2c(cc1NC(=O)C(C)Sc1ccc(C)cc1)oc1ccccc12 (stereo not drawn)	-15%	-4%	-28%	16	6.9	10	-10%
Cc1cc(NC(=O)c2ccc(S(=O)(=O)N3CCOCC3)cc2)nc2c1c(=O)oc1ccccc12	x	-8%	x	x	9.1	-2	x

Grouped by structure: the compounds so far containing fluorine.
SMILES	ClpP mod	Sfp inh	gsp agonist	TRPML1 blocker	Menin-MLL FL inh	TRPV1 PAM	gsp antagonist
Fc1ccc(CSc2nnc(-c3ccccn3)o2)cc1	-2.5%	11%	-6%	x	0.8	-11	13%
Cc1cc(C)n2c(SCC(=O)Nc3ccc(F)cc3F)nnc2n1	-0.1%	1%	-1%[15.4 µM]	3	4.3	-1	8%

More compounds.
SMILES	ClpP mod	Sfp inh	gsp agonist	TRPML1 blocker	Menin-MLL FL inh	TRPV1 PAM	gsp antagonist
O=S(=O)(c1cccc(C(F)(F)F)c1)N1CCN(c2cnccn2)CC1	x	15%	u	19	-0.2	0	3%
C/C(=N\NC(=S)Nc1cccc(C)c1)c1cc2ccccc2o1	x	-17%	5%[15.4 µM]	20	-0.5	13	-15%
Cc1nn(-c2ccccc2)c(C)c1/C=N/NC(=O)c1cc(-c2cccs2)[nH]n1	-4.8%	-5%	u	-6	4.6	11	17%
Cc1cccc(C(=O)NC2CC(C)(C)NC(C)(C)C2)c1	-5.6%	9%	-29%	3	-1.5	25	-8%
CCn1nnnc1SCC(=O)NC1Cc2ccccc2C1	1.5%	30%[activator]	-4%	27	-2.2	-1	11%
CC(Sc1cccc[n+]1[O-])C(=O)Nc1cc(Cl)c(Cl)cc1Cl (stereo not drawn)	-9.4%	x	5%[15.4 µM]	7	x	x	-8%
CN(C)c1ccc(NC(=O)CCCCCn2nnc3ccccc3c2=O)cc1	-0.6%	7%	3%	13	5.4	-4	-11%
O=C(CCn1c(=S)[nH]c2ccccc2c1=O)NCCSCc1ccccc1	x	6%	3%[15.4 µM]	-20	-3.5	-4	-30%
CCC(=O)c1ccc(OCC(=O)N(CC)CC2COc3ccccc3O2)cc1 (stereo not drawn)	-6.4%	x	31%	-1	x	8	5%
O=C(NC(=S)NC12CC3CC(CC(C3)C1)C2)c1ccc(F)cc1	-7.4%	x	-3%[15.4 µM]	79	x	x	-9%
O=C(CN1C(=O)c2ccc([N+](=O)[O-])cc2C1=O)NCCC1=CCCCC1	0.3%	x	8%[15.4 µM]	-2	x	-22	-3%
CC(=O)c1ccc(S(=O)(=O)N2CCC3(CC2)OCCO3)cc1	2.5%	0%	-23%	-15	x	-6	1%
O=C(Nc1ccc(C(=O)O)cc1)/C(=C\c1ccc(F)cc1)NC(=O)c1ccco1	x	0%	8%[15.4 µM]	-12	x	-3	-15%
CCOC(=O)N1CCC(NC(=O)c2oc3c(c2C)-c2[nH]ncc2CC3)CC1	u	-11%	0%	-2	2.4	2	5%
O=C(c1ccc(Cn2c(=O)[nH]c3ccccc3c2=O)cc1)N1CCN(c2ccc(Cl)cc2)CC1	-25%	9%	0%	52	3.0	8	4%
CC(=O)Nc1ccc(OC(=O)c2cccnc2)cc1	-1.1%	5%	-22%	-8	1.1	2	5%
COc1ccc(NC(=O)CCCN2C(=O)CN(C)C2=O)c(OC)c1	-0.2%	x	u	12	x	-3	9%
Cc1nn(Cc2ccc(C(=O)Nc3ccccc3C(F)(F)F)o2)c(C)c1Br	-0.8%	-28%	0%	-2	4.9	29	16%
NC(=O)C1=C[C@H](C2CCCCC2)C[C@H](OCc2ccc(CO)cc2)O1	1.3%	8%	x	40	4.2	19	2%
COc1ccc(/C=C/c2nnc(NC(C)=O)s2)cc1	x	-9%	2%[15.4 µM]	11	4.2	8	2%
Cn1c(N)c(C(=O)COC(=O)/C=C/c2ccc(Cl)cc2)c(=O)n(C)c1=O	0.4%	x	u	41	x	-1	-9%
CCn1c(SCc2nc3ccccc3c(=O)[nH]2)nnc1C(C)NC(=O)c1ccccc1 (stereo not drawn)	x	-15%	-29%	17	5.7	4	6%
CC(CSc1nnnn1-c1ccccc1)Cn1c(N2CCN(C)CC2)nc2c1c(=O)[nH]c(=O)n2C (stereo not drawn)	2.4%	14%	6%[15.4 µM]	10	0.5	8	-31%
N#Cc1ccc(C(=O)OCc2cccc(S(=O)(=O)N3CCOCC3)c2)cc1	-2.1%	x	8%	7	x	-13	-2%
O=C(O)C(=Cc1cc2c(cc1[N+](=O)[O-])OCO2)c1cc2c(cc1Br)OCO2	-3.0%	x	u	30	x	x	-9%
CC(=O)Nc1ccc(N2CCN(Cc3ccccc3F)CC2)cc1	-3.5%	11%	-24%	-21	-0.5	6	2%
Cc1ccc2cc3cc(C(=O)N4CCN(C(=O)c5ccco5)CC4)sc3nc2c1	-30%	-4%	12%	12	3.0	-2	-5%
COCCn1c(SCC(=O)Nc2ccc(Cl)c(S(=O)(=O)N(C)C)c2)nc2ccccc21	0.0%	15%	-36%[inhibitor]	7	1.4	u	u
CC(C)(C)OC(=O)N[C@@H](COCc1ccccc1)C(=O)N[C@@H](CO)[C@H](O)[C@@H]1C[C@@H]1C(=O)NC1CCCCC1	1.1%	16%	-1%	3	5.3	-5	12%
CCCCCOc1ccc(C(=O)NCCC(=O)NCCCC(=O)OCC)cc1	-5.3%	10%	4%[15.4 µM]	9	2.5	-28	-14%
COc1ccc2c(c1OC)C(=O)N(c1ccc(O)cc1)C2	x	8%	-17%[15.4 µM]	-4	x	7	14%
Cc1ccc2[nH]c(C(=O)Nc3ccc(F)cc3)cc2c1	-0.6%	22%	-8%	-3	-0.7	5	-4%
CCOC(=O)CCn1nc(-c2ccc(Cl)cc2)cc1N	-1.6%	4%	21%	-8	3.5	-25	2%
Oc1ccc2[nH]ccc2c1	-6.0%	4%	-21%	-8	-3.1	-1	4%
Cc1cc(C)nc(SCC(=O)N/N=C/c2cccc([N+](=O)[O-])c2)n1	-1.4%	-1%	5%[15.4 µM]	4	3.2	15	13%
COc1ccc(NC(=O)CN(C)C(=O)Cc2ccsc2)cc1	-2.6%	13%	u	19	x	23	6%
CCCCc1nnc(NC(=O)C=C(C)C)s1	-0.3%	15%	-56%[inhibitor]	2	2.9	9	12%
NC(=O)Cn1cnc2c(nnn2-c2ccc(F)cc2)c1=O	x	21%	8%[15.4 µM]	-2	0.4	2	6%
Cc1ccc(C(=O)C2=C(O)C(=O)N(Cc3cccnc3)C2c2ccc(Br)cc2)o1 (stereo not drawn)	-1.4%	12%	17%[15.4 µM]	27	x	6	-10%
CC(CN(C(N)=O)c1ccccc1O)C(=O)O (stereo not drawn)	0.8%	-2%	-54%[inhibitor]	-2	2.8	2	7%
O=S(=O)(NCCc1ccccc1)c1ccc(F)cc1Br	-2.2%	x	x	36	x	x	-1%
Cc1cc(C)cc(C(=O)NCC(=O)NCc2ccc(S(N)(=O)=O)cc2)c1	0.3%	3%	9%	7	-14	-12	9%
COc1ccc(S(=O)(=O)NCC2CCC(C(=O)NCC(OC)OC)CC2)cc1 (stereo not drawn)	x	2%	8%[15.4 µM]	-6	0.2	5	2%
CC(C)(C)c1ccc(OCC(O)CN2CCc3ccccc3C2)cc1 (stereo not drawn)	2.4%	x	0%	10	x	x	5%
CS(=O)(=O)NCCC1=CCCCC1	-1.5%	10%	-10%	-4	-0.3	-8	3%
CC(=O)N(C)c1ccc(NC(=O)c2ccco2)cc1	0.0%	15%	-24%	-10	-1.2	-10	-3%
O=C(/C=C/c1ccco1)Nc1ccc2c(c1)OCCO2	x	-10%	-8%[15.4 µM]	3	0.0	-8	-4%
CC(=O)Nc1nc(-c2cccc3ccccc23)cs1	x	9%	u	10	2.5	-1	-13%
CC(=O)Nc1ccc(S(=O)(=O)NCC(=O)OCC(=O)N2CCN(c3ccccc3)CC2)cc1	-2.7%	18%	-20%	0	3.2	15	7%
CCOc1ccccc1OCCCC(=O)NC1=NCCS1	-4.3%	12%	-18%	22	6.1	8	7%
